Compound activity: PubChem, ICCB-Longwood Screening Facility, Harvard Medical School
CapD inh = Bacillus anthracis CapD inhibitors, primary screen, biochemical, fluorescence intensity | purified CapD enzyme, fluorescence intensity read-out; stronger effect = lower value; some hits fall short of the stated cut | 140,000 tested, 0.23% active | z-score (no concentration beside the values) | AID 492967, 2010;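 active means z-score under -4 in either of two replicates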;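 further: stock transfer was 100 nL into about 40 µL; score is relative to mean and spread of the plate; one replicate is shown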
AID504770 = growth inhibition of E. coli YBA685, primary screen, V. cholerae RctB inhibitors | E. coli YBA685 rctB-dependent plasmid, OD600 growth, 3 h; stronger effect = lower value | z-score (no concentration beside the values) | 130,000 tested, 0.27% active;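 active means z-score under -2 on both plates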;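 further: wells of about 30 µL received 100 nL stock; score is relative to mean and SD of the test wells; the first replicate is given; strong numbers were not always called active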
The depositor's hits bear a star; · = no result given; & = joins results of further samples.

SMILES	CapD inh	AID504770
CCCOC(=O)CSC1=C(C#N)C(c2cc(Br)c(O)c(OC)c2)CC(=O)N1 (configuration not stated)	-0.11	·
CCOC(=O)c1ccc2nc(C(F)(F)F)nc(N3CC(C)OC(C)C3)c2c1 (configuration not stated)	79	-0.15
CNC(=O)c1ccc(-c2nc(-c3ccc(Cl)c(Cl)c3)cs2)cc1	3.1	·
CC1(C)CC(=O)c2c(n(S(C)(=O)=O)c3ccc(NS(C)(=O)=O)cc23)C1	·	-0.5
CCOC(=O)CSc1nc2c(sc(=S)n2CCc2ccccc2)c(=O)n1Cc1ccco1	-0.55	·
Cn1ccnc1C(=O)c1cc(Cl)nc2ccccc12	0.42	0.2
CCOc1cc(C(NC(=O)c2ccco2)NC(=O)c2ccco2)ccc1OC	·	-0.4
NS(=O)(=O)c1ccc(CCNc2ncnc3nc[nH]c23)cc1	-0.52	-1.1
COc1cccc(C(=O)N2c3ccccc3C(N(C(=O)CN3C(=O)c4ccccc4C3=O)c3ccccc3)CC2C)c1 (configuration not stated)	0.46	·
O=C(CSc1ncc(C(F)(F)F)cc1Cl)N(CC1CCCO1)C1CCS(=O)(=O)C1 (configuration not stated)	·	0.25
CCc1c(C)nc(-n2nc(C)cc2C)nc1Nc1ccccc1	-0.57	·
Cc1ccc(CC2CC(=O)N(C3CCCCC3)C2=O)cc1 (configuration not stated)	·	0
COc1cc(Br)c(O)c(/C=N/NC(=O)c2cccnc2)c1	-1.4	·
COC(=O)c1c(-n2cccc2)sc(C)c1C	-0.77	-0.2
CN(CCCNCC1CC2C=CC1C2)c1ccccc1 (configuration not stated)	·	1.8
COc1ccc(C(=O)OCC(=O)NCC2CCCCC2)c(OC)c1	·	0.65
O=C(O)CC(NC(=O)c1ccco1)c1ccc(F)cc1 (configuration not stated)	·	-0.2
Cc1nc2ccccc2n1CCN=Cc1c(O)[nH]c(=O)[nH]c1=O	·	-0.65
Cn1c(=O)c2c(nc(NCc3ccc4c(c3)OCO4)n2Cc2cccc(Cl)c2)n(C)c1=O	0.8	·
Cc1c(C#N)sc(C(=O)N=CN(C)C)c1C	-0.05	·
CC1CCCCC1NC(=O)NC(=O)CSc1nc(N)cc(N)n1 (configuration not stated)	·	1.1
CCC1CCCCN1C(=O)COC(=O)c1ccc(Br)o1 (configuration not stated)	-1.1	-0.9
N#CCCN1c2ccccc2Sc2ccc(Cl)cc21	0.25	1.5
Cc1cc(/C=C2/NC(=O)N(Cc3ccccc3F)C2=O)c(C)n1-c1ccc(S(N)(=O)=O)cc1	3	-0.7
Cc1ccc(C(=O)N/C(=C\c2ccc(F)cc2)C(=O)NCCCn2ccnc2)cc1	0.1	·

Arranged by length of the SMILES (rising): some entries from above.
SMILES	CapD inh	AID504770
COC(=O)c1c(-n2cccc2)sc(C)c1C	-0.77	-0.2
N#CCCN1c2ccccc2Sc2ccc(Cl)cc21	0.25	1.5
Cn1ccnc1C(=O)c1cc(Cl)nc2ccccc12	0.42	0.2
CCC1CCCCN1C(=O)COC(=O)c1ccc(Br)o1 (configuration not stated)	-1.1	-0.9
O=C(O)CC(NC(=O)c1ccco1)c1ccc(F)cc1 (configuration not stated)	·	-0.2
Cc1ccc(CC2CC(=O)N(C3CCCCC3)C2=O)cc1 (configuration not stated)	·	0
CC1CCCCC1NC(=O)NC(=O)CSc1nc(N)cc(N)n1 (configuration not stated)	·	1.1
COc1ccc(C(=O)OCC(=O)NCC2CCCCC2)c(OC)c1	·	0.65
NS(=O)(=O)c1ccc(CCNc2ncnc3nc[nH]c23)cc1	-0.52	-1.1
CCOC(=O)c1ccc2nc(C(F)(F)F)nc(N3CC(C)OC(C)C3)c2c1 (configuration not stated)	79	-0.15
CCCOC(=O)CSC1=C(C#N)C(c2cc(Br)c(O)c(OC)c2)CC(=O)N1 (configuration not stated)	-0.11	·
CCOC(=O)CSc1nc2c(sc(=S)n2CCc2ccccc2)c(=O)n1Cc1ccco1	-0.55	·
CC1(C)CC(=O)c2c(n(S(C)(=O)=O)c3ccc(NS(C)(=O)=O)cc23)C1	·	-0.5
Cc1cc(/C=C2/NC(=O)N(Cc3ccccc3F)C2=O)c(C)n1-c1ccc(S(N)(=O)=O)cc1	3	-0.7
COc1cccc(C(=O)N2c3ccccc3C(N(C(=O)CN3C(=O)c4ccccc4C3=O)c3ccccc3)CC2C)c1 (configuration not stated)	0.46	·

Following part:
SMILES	CapD inh	AID504770
CCOC(=O)C1=C(C)N=c2s/c(=C/c3ccc(OC(C)=O)c(OC)c3)c(=O)n2C1c1ccc(OC(C)=O)cc1 (configuration not stated)	-0.57	·
NC(=O)CSc1nnc(Cc2cc(=O)[nH]c(=O)[nH]2)n1-c1ccccc1	-5*	-0.35
Cc1ccc(C23CC4CC(CC(C(=O)NN5CCN(CCO)CC5)(C4)C2)C3)cc1	0.1	-0.5
c1cncc(-c2noc(C3CCCCC3)n2)c1	·	-1.2
CC1(C)C(=O)N(c2ccccc2)C(=O)c2ccccc21	0.25	-0.2
CCC(=O)c1ccc(OC)cc1OC	0.65	0.35
O=C1CCN(S(=O)(=O)c2ccc(Cl)cc2)CC1	-0.26	-0.1
CN(C)c1ccc(C(C(=O)NCC2CCCO2)N(C(=O)Cn2nnc3ccccc32)c2ccc3c(c2)OCO3)cc1 (configuration not stated)	·	1.3
O=c1cc(CSc2nnc(SCC3CC3)s2)c2ccc(O)cc2o1	0.46	-0.45
O=C(O)C1CNC(=O)N1C(=O)OCc1ccccc1 (configuration not stated)	0.08	-0.15
c1cn2c3c(n1)CCCc3c1cc(C3CCCCC3)ccc12	-1.2	-0.8
c1ccc(C(Sc2nnc(-c3ccc4c(c3)OCO4)o2)c2ccccc2)cc1	·	-0.45
Oc1ccc(CNc2cccc(C(F)(F)F)c2)c2cccnc12	-0.82	1.1
CC(O)CN(CC(C)O)CC1CC=CCC1 (configuration not stated)	0.045	-0.65
CCOC(=O)C1=C(N)Oc2ccc3ccccc3c2C1c1ccc(O)cc1 (configuration not stated)	-0.67	·
CC1CC(C)CN(CC(=O)Nc2ccccc2C(N)=O)C1 (configuration not stated)	0.12	-1.2
COCc1nnc(NC(=O)C2CC(=O)N(c3ccc(C)cc3)C2)s1 (configuration not stated)	·	1.9
COc1ccc(-c2nc(SC(C(=O)NC(N)=O)C(C)C)n[nH]2)cc1 (configuration not stated)	·	-0.45
O=C1NC(=O)N(c2ccccc2)C(=O)/C1=C\c1ccc(-c2ccccc2C(=O)O)o1	-0.24	·
O=C(NNC(=O)c1ccc(-c2ccccn2)s1)c1cccs1	1.2	·
CCOC(=O)c1c(-c2ccccc2)csc1NC(=O)C1CC1	-0.21	0.2
O=C(O)COCC(=O)Nc1ccc(Oc2c(Cl)cccc2Cl)nc1	0.18	-1
Cc1cc(=O)oc2cc(OCC(=O)NCc3ccc(Cl)cc3)ccc12	55	-0.45
Cc1c(NC(=O)c2ccccc2)c(=O)n(-c2ccccc2)n1C	-0.15	-0.1
C=CCNC(=O)/C(=C/c1ccccc1)c1ccccc1	0.38	-0.2

(continued)
SMILES	CapD inh	AID504770
O=C(c1ccccc1)c1cccn1CC(=O)N1CCCC1	0.59	-0.05
O=C(C1=C(O)C(=O)N(CCc2ccccc2)C1c1ccncc1)c1cc2ccccc2o1 (configuration not stated)	-1.2	0.15
COc1cc(OC)cc(C(=O)N2CCN(c3ccccn3)CC2)c1	1.9	·
CCOC(=O)c1oc2ccc(Br)cc2c1COC(=O)Cc1n[nH]c(=O)c2ccccc12	·	0.6
O=C1Cc2ccccc2N1	1.1	-1.2
Cc1nnc2n(-c3ccccc3)c(=O)c3ccccc3n12	-0.32	-1
CCOC(=O)C1CCN(c2ccc(S(C)(=O)=O)cc2NC(=O)C(c2ccccc2)c2ccccc2)CC1	2.9	·
CCNC(=S)N/N=C/c1ccc2ncccc2c1	·	-0.3
CCCC12CN3CC(CCC)(CN(C1)C3c1c[nH]c3ccccc13)C2=O (configuration not stated)	-0.36	0.65
CCCCc1cc(=O)oc2cc(OC(=O)c3ccco3)ccc12	1.5	1.1
N#Cc1c(Cl)nc(SCc2ccccc2Cl)nc1-c1ccccc1	15	·
CN1/C(=C\C(=O)Cn2cc(S(=O)(=O)N3CCCC3)ccc2=O)C(C)(C)c2ccccc21	·	0.15
CCOC(=O)c1sc(NC(=O)CSc2nnc(CNC(=O)Cc3ccc(OC)cc3)n2C)c(C(=O)OCC)c1C	-0.34	·
O=C(NCC1CCN(C2CCCC2)C1)c1cnn2ccccc12 (configuration not stated)	0.15	-0.2
CC(N)C12CC3CC(CC(C3)C1)C2 (configuration not stated)	0.69&-0.32	-1.1
CCOc1cc2c(cc1OCC)C(CC(=O)O)N(C(=O)NCc1ccccc1)CC2 (configuration not stated)	1.9	-1.4
Cc1ccc(-n2c(C)c3c(C)nnc(C)c3c2C)cc1	0.03	-1.1
O=C1NC(=O)/C(=C/c2ccccc2Oc2ccc(Cl)c(F)c2)S1	0.66	·
O=C(Oc1coc(CSc2ncccn2)cc1=O)c1ccc(S(=O)(=O)N2CCCC2)cc1	·	-0.5
O=C(Nc1cccc(-c2noc(-c3ccccn3)n2)c1)c1ccco1	-0.73	-0.15
CN(C)C(=O)C(Sc1nnc(-c2ccccc2F)n1C)c1ccccc1 (configuration not stated)	·	0.6
CCCSc1ncccc1C(=O)Nc1c(-c2ccccc2)noc1C	-0.27	-0.25
Cc1oc2c(c1C(=O)NC1CCCC1)C(=O)c1ccccc1C2=O	1.8	0.4
Cc1cc(C)nc(N(C#N)CC(=O)N2c3ccccc3CCc3ccccc32)n1	-0.17	-0.45
Cc1ccc(C)n1-n1cnnc1	-0.47	-0.2

Further compounds follow:
SMILES	CapD inh	AID504770
O=C(Nc1nc2ccccc2[nH]1)c1ccccc1	·	0.3
CCOC(=O)NC1CCS(=O)(=O)C1 (configuration not stated)	22	0.25
CO[C@@H]1C(=O)N(C(C(=O)OCc2ccccc2)C(=O)OCc2ccccc2)[C@@H]1C(C)(C)CSc1ccccc1	-0.25	·
CCOc1ccccc1-n1c(SCC(=O)c2ccc3c(c2)OCCO3)nc(O)cc1=O	24	-0.1
CCNC(=O)n1cc(-c2ccnc3ccccc23)c(-c2cccnc2)n1	-0.58	·
CC(=O)OC1COC(n2ccc3ccccc32)C(OC(C)=O)C1OC(C)=O (configuration not stated)	0.02	1.6
Cc1ccccc1NC(=O)CC(NCc1ccccc1)C(=O)O (configuration not stated)	0.28	-0.4
CCCN(C(=O)c1ccc2c(=O)n3c(nc2c1)CCCC3)c1ccc(Cl)c(Cl)c1	0.63	-0.45
CCOC(=O)C1=C(N)n2c(s/c(=C\c3ccc(F)cc3)c2=O)=C(C(=O)OCC)C1c1ccc(F)cc1 (configuration not stated)	0.42	·
COc1ccc(-c2csc(-c3cc(C)on3)n2)cc1	0.3	0.1
O=C(COC(=O)c1cccc(-n2cccc2)c1)NCc1ccccc1	·	2.1
CSc1nc(NCCNS(=O)(=O)c2ccc(Cl)cc2)nc(N(C)C)n1	-0.59	·
COc1cc2c(cc1OC)C(CCCCCl)=NC(C)(C)C2	-0.12	·
O=C1c2ccccc2C(=O)N1Cc1nc2ccccc2c(=O)n1-c1ccncc1	0.36	-0.8
CC1=C(C(=O)OC(C)(C)C)C(c2ccc(Cl)cc2)C(C#N)=C(SCC(N)=O)N1 (configuration not stated)	2.3	·
Cc1ccc(C)c(N2C(=O)/C(=C/c3ccc(-c4ccc(Br)cc4)o3)C=C2c2ccccc2)c1	3.7	·
O=S(=O)(Cc1nc(-c2ccc(Cl)cc2)cs1)c1cccs1	-0.49	-0.65
CN(C(=O)COc1ccc(-c2nn(C)c(=O)c3ccccc23)cc1)C1CCCCC1	0.015	0.45
CCn1c(CCNC(=O)c2ccc(Cl)cc2)nnc1SCc1nc2ccccc2c(=O)[nH]1	·	-0.35
O=C(O)/C=C/C(=O)N1CCN(c2cccc(Cl)c2)CC1	-0.19	1.6
COc1ccccc1CNC(=O)c1ccc2c(SCC(=O)O)c3c(nc2c1)CCCC3	0.13	0.1
CCCCC(C(N)=O)C(N)=O	·	-0.35
C/C(=N/NC(=O)c1ccccc1)C1C(=O)c2ccccc2C1=O	·	1.9
CC(C(=O)O)c1n[nH]c(=O)c2ccccc12 (configuration not stated)	·	-0.6
O=C(/C=C/c1ccco1)Nc1ccc2c(c1)nc1n2CCCCC1	·	-0.25

Next section
SMILES	CapD inh	AID504770
CC1=NN(c2ccc(C(=O)OC(C)C)cc2)C(=O)/C1=C\c1ccc(-c2cc([N+](=O)[O-])ccc2C)o1	0.67	·
O=C(CSC1=NCCS1)N1CCC(Cc2ccccc2)CC1	-0.17	-0.55
O=c1[nH]n(Cc2ccccc2)c2ccccc12	20	-0.55
CC(C)c1ccc(NC2=CC(=O)CCC2)cc1	-2.5	0.3
COc1ccc(C(=O)NNC(=O)c2ccc(-n3c(C)ccc3C)cc2)cc1OC	0.48	·
COc1ccc(-c2cc(=O)c3ccccc3o2)cc1	78	-0.1
Cc1ccc(S(=O)(=O)c2c(C)nn(-c3ccccc3)c2OC(=O)c2ccco2)cc1	·	0.25
O=c1c(Cl)c(N2CCCC2)cnn1-c1nc2ccccc2s1	-0.55	0.2
COC(=O)c1cc(S(=O)(=O)N(C)c2ccc(C)c(C)c2)c[nH]1	-1.2	-0.3
O=C(CC1(O)C(=O)Nc2ccccc21)c1ccc2ccccc2c1 (configuration not stated)	-0.06	-0.85
COc1ccc(C(=O)COC(=O)c2ccc(N3C(=O)C4CC=CCC4C3=O)cc2)cc1 (configuration not stated)	-0.34	·
O=C(CSc1ccccn1)C12CC3CC(CC(C3)C1)C2	-0.3	-1.6
CC(C)Oc1cccc(NC(=O)c2cnccc2C(F)(F)F)c1	0.045	0.5
O=S(=O)(c1ccccc1F)N1CCC(O)(Cc2ccccc2)CC1	-0.06	·
CC(=O)Nc1ccc(S(=O)(=O)N(C)Cc2ccc(C)o2)cc1	·	0.6
O=C(NCC1CCCO1)NC12CC3CC(CC(C3)C1)C2 (configuration not stated)	·	-1.5
Cc1cc(/C=N/NC(=O)c2cccnc2)c(C)n1-c1cccc(S(=O)(=O)N2CCOCC2)c1	·	0.1
O=C1CNC(=O)N1/N=C/c1cccc2ccccc12	2.9	-0.4
O=C1N=c2ccccc2=C1c1[nH]c(=S)[nH]c1O	-0.14	0.75
